High-throughput results: PubChem BioAssay, several laboratories
Beta apoptosis: blocks beta cell apoptosis; AID 435005; protection from apoptosis, % (concentration not given with the values); INS-1E cytokine-induced death, ATP luminescence, 48 h; percent of positive-control rescue, neutral wells zero; 0.8% of 300,000 active;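 active = all replicates at 75% or more, or half of them and the mean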;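 also: 0% = cytokine-treated negative control wells and 100% = positive control rescue; higher means more ATP so stronger rescue from cytokine killing; wells of about 40 µL received 100 nL stock; the first replicate is given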
A1 inh: inhibitors of the anti-apoptotic protein A1, read as caspase activation; AID 2462; MEF A1-2A-BIM cells, Caspase-Glo 3/7 luminescence, 3 h; percent of clofoctol response, vehicle zero; 0.066% of 330,000 active; caspase activation, % (test concentration not listed);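 active = over half of replicate activation scores above 10%, or exactly half above 10 with the replicate mean above 10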;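 also: wells of about 30 µL received 50 nL stock; many hits fall short of the cut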
Ecoli rRNA inh: selective bacterial rRNA inhibition in E. coli. E. coli WT GFP vs humanized-ribosome RFP mutants, fluorescence, 24 h; hits give low values; DMSO median 0, no signal -100. GFP signal change (wild-type ribosome), % (concentration not given with the values). 1.6% of 350,000 active. AID 720706;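 active = significant combined selectivity score with lowered wild-type GFP, culture density cut under 30%, mutant RFP and density less affected; inactive = any of these conditions unmet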; also: one replicate is shown; some compounds called inactive have numbers as strong as hits
Calb FLC: affects C. albicans growth with fluconazole | 0.57% of 300,000 active | growth inhibition, % (no concentration beside the values) | AID 1979 | C. albicans CaCi-2 (fluconazole-resistant clinical isolate) + fluconazole, Alamar Blue growth, 48 h;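 active = most replicates above 75%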;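 also: all wells also contain fluconazole at 8 µg/ml as a sub-toxic cotreatment; 0% = median of DMSO wells and 100% = median of geldanamycin control wells; wells of about 8 µL received 7.5 nL stock; the first replicate is given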
LANA-H2A inh: blocks KSHV LANA binding to histone H2A/H2B; inhibition, % (test concentration not listed); AID 2629; cell-free LANA-H2A/H2B peptide, fluorescence polarization; Q9QR71; 0.6% of 320,000 active; in the data active = inhibition mostly above about 10%, no sharp cut-off; inactive = mostly below about 6.7%;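 also: stock transfer was 7.5 nL into about 10 µL; 0% = median of vehicle wells and 100% = median of positive control wells; one replicate is shown; the record names a cut of 25% in any replicate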
Beta2AR agonist: activates human beta-2 adrenergic receptor causing internalization; 0.43% of 340,000 active; Am2.2-beta2AR cells, FAP receptor internalization, flow cytometry; reference of the scale not given here; response, % (test concentration not listed); P07550; AID 504454;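 active = response above a set limit, near 3 SD of response in nonfluorescent compounds, cut at about 42% in these data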;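 also: stock transfer was 100 nL into about 11 µL; a reference agonist was the positive control; negative values mostly stem from fluorescent compounds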
Target sequence (P07550 whole entry, looked up): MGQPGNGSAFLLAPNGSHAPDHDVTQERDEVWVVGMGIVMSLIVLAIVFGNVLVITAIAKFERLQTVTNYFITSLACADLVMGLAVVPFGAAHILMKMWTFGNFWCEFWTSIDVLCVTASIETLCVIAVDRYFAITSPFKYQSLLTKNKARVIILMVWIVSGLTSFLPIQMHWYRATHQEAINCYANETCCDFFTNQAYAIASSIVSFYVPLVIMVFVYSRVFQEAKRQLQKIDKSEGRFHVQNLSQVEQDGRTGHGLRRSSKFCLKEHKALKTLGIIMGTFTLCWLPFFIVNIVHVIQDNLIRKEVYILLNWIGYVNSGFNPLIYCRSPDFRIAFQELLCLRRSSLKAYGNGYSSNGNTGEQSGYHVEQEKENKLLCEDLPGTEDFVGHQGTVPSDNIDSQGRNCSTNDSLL
T cruzi inh: blocks replication of Trypanosoma cruzi. T. cruzi beta-gal in NIH3T3, luminescence, 90 h. 1.4% of 300,000 active. AID 1885. inhibition, % (concentration not given with the values);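 active = mean inhibition across valid replicates above about 55%, limit read from the data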;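 also: signal also drops with host cell toxicity which is not excluded here; 0% = plate median of DMSO wells and 100% = zero luminescence signal; higher percent means less beta-gal luminescence so fewer parasites; stock transfer was 50 nL into about 50 µL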
ALR inh: blocks human ALR sulfhydryl oxidase activity; P55789; purified ALR, DTT oxidation, H2O2 HRP-luminol luminescence; inhibition, % (test concentration not listed); 3.8% of 290,000 active;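 active = mean and each replicate at 75% or more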;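 also: stock transfer was 7.5 nL into about 7.5 µL; 0% = neutral wells and 100% = wells with inactivated enzyme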
Target sequence (P55789 whole entry, looked up): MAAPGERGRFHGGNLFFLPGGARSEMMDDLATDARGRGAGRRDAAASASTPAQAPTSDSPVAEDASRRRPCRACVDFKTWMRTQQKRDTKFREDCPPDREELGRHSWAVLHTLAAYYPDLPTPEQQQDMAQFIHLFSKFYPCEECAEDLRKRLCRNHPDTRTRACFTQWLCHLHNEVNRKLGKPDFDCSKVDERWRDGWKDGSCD
Ecoli rRNA inh OD600: recorded beside Ecoli rRNA inh, whose call it bears; OD600 change, %; measured here: OD600 growth;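 optical density of the mix in the first replicate; 0 = DMSO median and -100 = no signal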
Ecoli rRNA inh RFP: further read-out of Ecoli rRNA inh, marked with its call; RFP signal change, %; measured here: RFP humanized mutant strains;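 first replicate; 0 = DMSO median and -100 = no signal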
* = called active by the depositor. Not all compounds are listed; the hit share may differ from the screen's.

How did O=C1C2C3c4ccccc4C(c4ccccc43)[C@@H]2C(=O)N1c1nc(-c2ccccc2)cs1 (stereo partly specified) do in these assays?
Beta apoptosis: -5; A1 inh: 0.1; Ecoli rRNA inh: -2; Calb FLC: -5; LANA-H2A inh: -3.0; Beta2AR agonist: -9; T cruzi inh: -10; ALR inh: 0; Ecoli rRNA inh OD600: -11; Ecoli rRNA inh RFP: -2.6

What do the screens show for `CCn1c(SC(C)C)nnc1C1CCN(S(=O)(=O)c2ccc(OC)cc2)CC1`?
Beta apoptosis: 0; A1 inh: 0.1; Calb FLC: 2; LANA-H2A inh: -4.5; Beta2AR agonist: -6; T cruzi inh: 1; ALR inh: 22

Results for CC1=NNC(=O)C1CCC(=O)N/N=C/c1ccc(C)cc1 (stereo unspecified) ?
Beta apoptosis: -4; A1 inh: 0.9; Ecoli rRNA inh: 5; Calb FLC: -2; LANA-H2A inh: -0.7; T cruzi inh: 4; ALR inh: 17; Ecoli rRNA inh OD600: -4; Ecoli rRNA inh RFP: -3.3

How did O=C(Nc1cccc(C(F)(F)F)c1)c1cc2ncc(Br)cn2n1 do in these assays?
Beta apoptosis: -5; A1 inh: -0.2; Ecoli rRNA inh: 10; Calb FLC: 1; LANA-H2A inh: 3.5; Beta2AR agonist: -8; T cruzi inh: -3; ALR inh: -3; Ecoli rRNA inh OD600: -3; Ecoli rRNA inh RFP: -6.8

What do the screens show for `O=C([C@H](Cc1ccccc1)N1C(=O)c2ccccc2C1=O)N1CCOCC1`?
Beta apoptosis: 2; A1 inh: 0.1; Ecoli rRNA inh: 6; Calb FLC: -1; LANA-H2A inh: -1.1; Beta2AR agonist: -2; Ecoli rRNA inh OD600: 9; Ecoli rRNA inh RFP: 1.3

What do the screens show for `CCOc1cc(C(=O)N2CCN(c3ccccn3)CC2)cc(OCC)c1OCC`?
A1 inh: 0.3; Ecoli rRNA inh: 10; Calb FLC: 16; LANA-H2A inh: -2.8; Beta2AR agonist: -4; T cruzi inh: -3; ALR inh: -5; Ecoli rRNA inh OD600: 6; Ecoli rRNA inh RFP: 4.6

What do the screens show for `Cn1c(COc2ccc([N+](=O)[O-])cc2)nnc1SCC(N)=O`?
Beta apoptosis: -1; A1 inh: 0.0; Ecoli rRNA inh: 12; Calb FLC: -4; LANA-H2A inh: -1.2; Beta2AR agonist: 1; T cruzi inh: -11; ALR inh: -1; Ecoli rRNA inh OD600: 19; Ecoli rRNA inh RFP: 2.0

Results for Cc1cccc(NC(=S)N2CCC(NC(=O)c3ccco3)CC2)c1 ?
Beta apoptosis: 2; A1 inh: 0.3; Ecoli rRNA inh: 3; Calb FLC: -5; LANA-H2A inh: 3.9; Beta2AR agonist: -7; T cruzi inh: -1; ALR inh: -5; Ecoli rRNA inh OD600: 7; Ecoli rRNA inh RFP: 0.6

Results for O=C(CN(C(=O)c1csnn1)c1ccc(F)c(Cl)c1)NC1CCCC1 ?
Beta apoptosis: 4; A1 inh: 0.8; Ecoli rRNA inh: 3; Calb FLC: -1; LANA-H2A inh: 3.3; Beta2AR agonist: -7; T cruzi inh: -4; ALR inh: -17; Ecoli rRNA inh OD600: 1; Ecoli rRNA inh RFP: 0.1

How did O=C(NC1CCCCC1)NC1CC2CCC(C1)N2C(=S)NCc1ccco1 (stereo unspecified) do in these assays?
Beta apoptosis: -1; A1 inh: 0.8; Ecoli rRNA inh: 0; Calb FLC: 7; LANA-H2A inh: -2.9; Beta2AR agonist: -7; T cruzi inh: -2; ALR inh: 0; Ecoli rRNA inh OD600: -4; Ecoli rRNA inh RFP: 1.5

Results for COc1ccc(NC(=O)CN2CCC3(O)CCCCC3C2c2cc(OC)ccc2OC)cc1 (stereo unspecified) ?
Beta apoptosis: 3; A1 inh: -0.6; Calb FLC: -6; LANA-H2A inh: 5.7; Beta2AR agonist: -1; T cruzi inh: -3; ALR inh: -8

How did CCOc1ccccc1N1CCN(C(=O)c2cc3c(C)cc(C)cc3[nH]2)CC1 do in these assays?
A1 inh: 1.1; Ecoli rRNA inh: 4; Calb FLC: 25; LANA-H2A inh: -4.3; Beta2AR agonist: 2; T cruzi inh: 12; Ecoli rRNA inh OD600: -8; Ecoli rRNA inh RFP: 1.4

What do the screens show for `CCOC(=O)c1c(N)c(C#N)c2n1CCCC2`?
Beta apoptosis: 0; A1 inh: 1.8; Calb FLC: 16; LANA-H2A inh: 3.7; Beta2AR agonist: -10; T cruzi inh: -13; ALR inh: 28

How did Cc1ccc(C(C)NC(=O)/C(C#N)=C\c2c(C)[nH]c3ccccc23)cc1 (stereo unspecified) do in these assays?
Beta apoptosis: -7; A1 inh: -0.4; Calb FLC: -1; LANA-H2A inh: -2.2; Beta2AR agonist: -6; T cruzi inh: 34; ALR inh: 16

How did COc1ccc(/C=C/C(=O)c2ccccc2O)cc1 do in these assays?
Beta apoptosis: 1; A1 inh: -3.2; Calb FLC: -17; LANA-H2A inh: -0.8; Beta2AR agonist: 10; T cruzi inh: -16; ALR inh: 16

In the list so far, 3 have an aryl methoxy group.
What do the screens show for `CCn1c(SC(C)C)nnc1C1CCN(S(=O)(=O)c2ccc(OC)cc2)CC1`?
Beta apoptosis: 0; A1 inh: 0.1; Calb FLC: 2; LANA-H2A inh: -4.5; Beta2AR agonist: -6; T cruzi inh: 1; ALR inh: 22

Results for COc1ccc(NC(=O)CN2CCC3(O)CCCCC3C2c2cc(OC)ccc2OC)cc1 (stereo unspecified) ?
Beta apoptosis: 3; A1 inh: -0.6; Calb FLC: -6; LANA-H2A inh: 5.7; Beta2AR agonist: -1; T cruzi inh: -3; ALR inh: -8

How did COc1ccc(/C=C/C(=O)c2ccccc2O)cc1 do in these assays?
Beta apoptosis: 1; A1 inh: -3.2; Calb FLC: -17; LANA-H2A inh: -0.8; Beta2AR agonist: 10; T cruzi inh: -16; ALR inh: 16

Continuation:
What do the screens show for `N=c1sccn1CC(=O)Nc1cccc(S(=O)(=O)N2CCCCCC2)c1`?
Beta apoptosis: 12; A1 inh: -0.1; Ecoli rRNA inh: 0; Calb FLC: -23; LANA-H2A inh: 2.9; Beta2AR agonist: 4; T cruzi inh: 14; ALR inh: 3; Ecoli rRNA inh OD600: -2; Ecoli rRNA inh RFP: -0.9

How did c1ccc(OCCOc2ncnc3ccccc23)cc1 do in these assays?
Beta apoptosis: -7; A1 inh: -2.6; Calb FLC: -3; LANA-H2A inh: -4.3; Beta2AR agonist: 0; T cruzi inh: 6; ALR inh: -3

What do the screens show for `CCOc1ccc(NC(=O)CN(C)C(=O)c2nc3nc(C)cc(C)n3n2)cc1OCC`?
Beta apoptosis: -5; A1 inh: 0.4; Ecoli rRNA inh: -4; LANA-H2A inh: 35*; Beta2AR agonist: -2; ALR inh: -28; Ecoli rRNA inh OD600: 8; Ecoli rRNA inh RFP: 3.3

Results for O=C(NC(=S)Nc1ccccc1Br)C1CCC1 ?
Beta apoptosis: 3; A1 inh: 0.6; Ecoli rRNA inh: -8; Calb FLC: 8; LANA-H2A inh: -4.4; Beta2AR agonist: 0; T cruzi inh: 1; ALR inh: 9; Ecoli rRNA inh OD600: -6; Ecoli rRNA inh RFP: -1.7

How did CCN(C(=O)CN1CCCCC1)c1c(N)n(Cc2ccccc2)c(=O)[nH]c1=O do in these assays?
Beta apoptosis: -3; A1 inh: 0.1; Ecoli rRNA inh: 7; LANA-H2A inh: 0.7; Beta2AR agonist: -4; ALR inh: 1; Ecoli rRNA inh OD600: 6; Ecoli rRNA inh RFP: -0.3

What do the screens show for `COC(=O)/C(C#N)=C/c1cc(C)sc1C`?
Beta apoptosis: -2; A1 inh: -0.3; Ecoli rRNA inh: 10; Calb FLC: 0; LANA-H2A inh: 7.7; Beta2AR agonist: -4; T cruzi inh: -6; ALR inh: -1; Ecoli rRNA inh OD600: 10; Ecoli rRNA inh RFP: 1.2

What do the screens show for `CC(=O)Nc1cccc(C(=O)N/N=C/c2c[nH]c3ccccc23)c1`?
Beta apoptosis: -2; A1 inh: 0.4; Ecoli rRNA inh: -1; Calb FLC: 3; LANA-H2A inh: -6.2; Beta2AR agonist: 4; T cruzi inh: -12; ALR inh: -3; Ecoli rRNA inh OD600: 3; Ecoli rRNA inh RFP: 0.1

Results for CC(=O)Nc1ccc(NC(=O)c2c([N+](=O)[O-])c(C(C)(C)C)nn2C)cc1 ?
Beta apoptosis: -4; A1 inh: 0.9; Ecoli rRNA inh: -5; Calb FLC: -20; LANA-H2A inh: 3.0; Beta2AR agonist: 1; T cruzi inh: -10; ALR inh: 1; Ecoli rRNA inh OD600: -12; Ecoli rRNA inh RFP: -2.8

How did O=C(Cc1ccc([N+](=O)[O-])cc1)c1c(O)cc(O)cc1O do in these assays?
Beta apoptosis: 4; A1 inh: 0.1; Ecoli rRNA inh: -7; Calb FLC: 5; LANA-H2A inh: -4.1; Beta2AR agonist: -4; T cruzi inh: 0; ALR inh: 53; Ecoli rRNA inh OD600: -10; Ecoli rRNA inh RFP: -3.9

How did CCN(CC)CCNC(=O)c1ccc(Sc2ccc(Cl)cc2)c(NC(C)=O)c1 do in these assays?
Beta apoptosis: -2; A1 inh: 0.2; Ecoli rRNA inh: 12; Calb FLC: 0; LANA-H2A inh: 0.1; Beta2AR agonist: -2; T cruzi inh: -10; ALR inh: 1; Ecoli rRNA inh OD600: 0; Ecoli rRNA inh RFP: -5.0

What do the screens show for `N/C(CN1CCCC1=O)=N\OC(=O)c1ccc(Cl)cc1`?
Beta apoptosis: -9; A1 inh: -0.1; Calb FLC: -3; LANA-H2A inh: -3.0; Beta2AR agonist: -6; T cruzi inh: -13; ALR inh: -12

What do the screens show for `Cc1ccccc1CS(=O)(=O)CCC(=O)NCCN1CCN(c2cccc(Cl)c2)CC1`?
Beta apoptosis: -6; A1 inh: 1.9; Calb FLC: -1; LANA-H2A inh: -3.7; Beta2AR agonist: -6; T cruzi inh: 8; ALR inh: 17

Results for COc1ccc(C2=NN(C(=O)CCC(=O)O)C(c3ccc(OC)cc3)C2)cc1 (stereo unspecified) ?
Beta apoptosis: -7; A1 inh: 1.0; Ecoli rRNA inh: -2; Calb FLC: 6; LANA-H2A inh: 5.4; Beta2AR agonist: -9; T cruzi inh: -15; ALR inh: 5; Ecoli rRNA inh OD600: 3; Ecoli rRNA inh RFP: -3.4

Results for Cc1ccc(Cc2cnc(NC(=O)/C(C#N)=C/c3ccc(-c4cccc([N+](=O)[O-])c4)o3)s2)cc1 ?
Beta apoptosis: 8; A1 inh: -0.7; Calb FLC: -21; LANA-H2A inh: 1.9; Beta2AR agonist: 6; T cruzi inh: -8; ALR inh: 20

How did CCCn1nnc(NC(=O)/C=C/c2ccco2)n1 do in these assays?
Beta apoptosis: -8; A1 inh: 0.4; Ecoli rRNA inh: 13; Calb FLC: -1; LANA-H2A inh: 0.7; Beta2AR agonist: -6; T cruzi inh: 1; ALR inh: -4; Ecoli rRNA inh OD600: 5; Ecoli rRNA inh RFP: 11
